Compound activity (PubChem)
Tgondii IFNg: blocks Toxoplasma gondii growth in the presence of IFN-gamma | Toxoplasma gondii growth in IFN-gamma-treated host cells; stronger effect = lower value; reference of the scale not given here | actives 3.8% (n = 69,000) | activity change, negative = inhibition, %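 (about 20 µM by stock and volumes)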;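 active = below -70%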;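 note: host cells are HeLa cells infected with Toxoplasma gondii; parasite growth read as luciferase light; one replicate is shown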
Starred values were filed as active, the others as inactive; i = inactive.

SMILES	Tgondii IFNg
Cc1ccc(S(=O)(=O)Nc2ccc3c(c2)CCC(=O)N3CC(C)C)cc1	31.4
C[C@H](CO)N1C[C@H](C)[C@H](CN(C)C(=O)Nc2ccc(C(F)(F)F)cc2)Oc2c(NC(=O)c3ccc(-c4nccs4)cc3)cccc2C1=O	-67.8
Cc1ccc(C(=O)NCCCNC(=O)c2ccc(-c3ccc(Cl)c(Cl)c3)o2)cn1	-60.0
C=CCn1c(N)c(C(N)=O)sc1=S	12.3
CCn1nnc(N(C(=O)c2cccs2)C(=O)c2cccs2)n1	8.9
CCc1cccc(N(C)C(N)=Nc2cccc3ccccc23)c1	20.6
N#C[C@H]1N[C@@H](CO)[C@@H]1c1ccc(C#CC2CCCCC2)cc1	-43.2
CN1CCN(c2ncnc3ccc(-c4cccc(-c5ccn[nH]5)c4)cc23)CC1	-79.2*
Cc1nnc(SCC(=O)NCCN2CCC(O)(c3ccc(F)cc3)CC2)o1	10.5
Cc1ccc(-c2nc(Cn3nnc(-c4nc(-c5cccc(F)c5)no4)c3C)c(C)o2)cc1	-14.8
COc1cccc2c1c(NS(=O)(=O)c1cccc3nonc13)nn2C	24.6
Cc1cnn(Cc2nc(-c3ccc(NC(=O)c4cc(F)ccc4Cl)cc3)oc2C)c1	-88.9*
Cc1ccc2[nH]c3c(c2c1)CCNC31C(=O)Nc2ccccc21 (stereo not given)	36.0
CN(C)CC1COC2(CCCN(C(=O)c3ccc4ccccc4n3)C2)C1 (stereo not given)	-2.1
COc1ccc([C@H]2C/C=C\C[C@H](c3ccc4c(c3)OCO4)NC(=O)CCC(=O)N2)c(OC)c1	-30.9
Cn1cnc2c1C(C(=O)O)CN(C(=O)C1CCOCC1)C2 (stereo not given)	36.8
COCCN1CCC2(CC1)CC(NC(=O)C1CC1)c1ccccc12 (stereo not given)	-10.8
Cc1nnsc1C(=O)N1C2CCC1CC(c1ccc(F)cc1)C2 (stereo not given)	-2.1
COc1ccc(-c2ccc3oc(-c4cccnc4)nc3c2)c(OC)c1OC	-48.9
O=C1CC2C(=O)NCCN2C(=NC(=O)c2ccccc2)N1 (stereo not given)	7.7
Cc1ccc(C2c3[nH]c4ccccc4c3CCN2C(=O)c2ccccc2F)cc1 (stereo not given)	-130.5*
C[C@H](O)C#Cc1ccc([C@@H]2[C@@H](CO)N3CCCCN(C(=O)c4ccc5c(c4)OCO5)C[C@@H]23)cc1	8.1
O=C(c1cccs1)N1CC[C@@H](c2ccc3ccccc3c2)[C@H](O)C1	-3.0
COc1cccc2cc(C(=O)N3CCCc4ccccc43)c(=O)oc12	20.8
CN(Cc1cc2n(n1)CCCNC2)Cc1cc(-c2ccccc2)n[nH]1	4.8
O=C(Cn1ncc2c(N3CCCC3)ncnc21)Nc1ccc(F)c(Cl)c1	-45.4
O=C1NC2(c3ccccc3)NC(=O)NC2(c2ccccc2)N1 (stereo not given)	-35.2
Cc1ccc(NC(=O)CC(=O)NCCN2CCCC2)cc1Cl	-0.4
Cc1ccc(NC(=O)C(C)C)cc1C1CCN(Cc2ccc(Oc3ccc(F)c(F)c3)cc2)CC1	-69.9
COc1ccc(S(=O)(=O)Nc2ccc3c(c2)C(=O)N([C@@H](C)CO)C[C@@H](C)[C@H](CN(C)C(=O)Nc2c(C)noc2C)OCCCC[C@H](C)O3)cc1	-1.8

By substructure, the compounds so far containing sulfur
SMILES	Tgondii IFNg
Cc1ccc(S(=O)(=O)Nc2ccc3c(c2)CCC(=O)N3CC(C)C)cc1	31.4
C[C@H](CO)N1C[C@H](C)[C@H](CN(C)C(=O)Nc2ccc(C(F)(F)F)cc2)Oc2c(NC(=O)c3ccc(-c4nccs4)cc3)cccc2C1=O	-67.8
C=CCn1c(N)c(C(N)=O)sc1=S	12.3
CCn1nnc(N(C(=O)c2cccs2)C(=O)c2cccs2)n1	8.9
Cc1nnc(SCC(=O)NCCN2CCC(O)(c3ccc(F)cc3)CC2)o1	10.5
COc1cccc2c1c(NS(=O)(=O)c1cccc3nonc13)nn2C	24.6
Cc1nnsc1C(=O)N1C2CCC1CC(c1ccc(F)cc1)C2 (stereo not given)	-2.1
O=C(c1cccs1)N1CC[C@@H](c2ccc3ccccc3c2)[C@H](O)C1	-3.0
COc1ccc(S(=O)(=O)Nc2ccc3c(c2)C(=O)N([C@@H](C)CO)C[C@@H](C)[C@H](CN(C)C(=O)Nc2c(C)noc2C)OCCCC[C@H](C)O3)cc1	-1.8

Further compounds.
SMILES	Tgondii IFNg
CCOc1cccc(CC(=O)N2CCc3c([nH]c4ccccc34)C2c2ccc(OC)cc2)c1OCC (stereo not given)	213.3
Cc1ncc(CN2CCC(CNC(=O)CC3=CCCCC3)C2)cn1 (stereo not given)	-50.2
O=C(CCc1nc(-c2ccccc2F)no1)N[C@H]1COC[C@@H]1N1CCCCC1	2.6
C[C@@H](O)C#Cc1ccc([C@H]2[C@@H](CO)N3CCCCN(CC4CC4)C[C@H]23)cc1	4.0
Brc1ccc(-c2csc(NC3=NCCCCC3)n2)cc1	-50.0
COc1ccc(S(=O)(=O)N(C)Cc2nc(-c3cccc(Cl)c3)oc2C)cc1	-98.9*
CCOc1ccsc1C(=O)N1C[C@@H]2[C@H](C1)OC[C@@H]2c1nnc(C)o1	-35.0
CC(C)(C)CC(=O)N1CCCC2(CC(C(=O)Nc3ccccc3)=NO2)C1 (stereo not given)	-10.0
Cc1ccc(-c2coc(-c3ccc(NC(=O)c4cccc(C)c4)cc3)n2)cc1	1.2
COc1cc(C2CC(=O)Nc3c2c(-c2ccc(Cl)cc2)nn3-c2ccccc2)ccc1O (stereo not given)	-21.5
CN(C)S(=O)(=O)c1ccc(CCC(=O)Nc2ccc3ncn(C)c3c2)cc1	10.1
COc1c(C)c2c(c(O)c1C/C=C(\C)CCC(=O)OCCN1CCOCC1)C(=O)OC2	-76.1*
Cn1nc2c3ccccc3n(CC(=O)c3ccc(Br)cc3)c2nc1=S	-36.1
O=C(OCc1nc(-c2ccccc2)oc1COC(=O)c1ccco1)c1ccco1	13.9
O=C1NCC(CN2CCc3onc(C(c4ccccc4)c4ccccc4)c3C2)O1 (stereo not given)	-34.9
Cc1nn(-c2ccccc2)nc1CNS(=O)(=O)c1cccc2ccccc12	36.2
COc1cccc(CNC(=O)C[C@H]2CC[C@@H]3[C@H](COc4ccc(NC(=O)c5cccs5)cc4C(=O)N3C)O2)c1	-24.2
COC1C2CCC1N(S(=O)(=O)c1cccnc1)CCO2 (stereo not given)	-4.0
CNC(=O)COC1COC2(CCN(Cc3cnn(C)c3)C2)C1 (stereo not given)	68.1
Cc1cc(=O)oc2cc(NS(=O)(=O)c3cccs3)ccc12	57.8
CC1c2ncc(COCC(=O)N3CCCC3)n2CCN1S(C)(=O)=O (stereo not given)	-21.7
Nc1ccccc1-c1nnc(-c2ccncc2)o1	54.9
CCS(=O)(=O)N1C[C@@H](C(=O)NC(C)C)[C@@]2(Cc3ccccc3C(=O)N2)C1	38.4
COc1ccccc1C(=O)Nc1ccc2c(c1)C(=O)N(C)C[C@@H](OC)[C@@H](C)CN(C(C)=O)[C@H](C)CO2	-11.2
NC(=NC1C2CC3CC(C2)CC1C3)Nc1ccc(I)cc1 (stereo not given)	-47.9
COCC1c2c(cnn2CC2CCOCC2)CCN1Cc1ccco1 (stereo not given)	22.9
Cc1ccc(-c2nc(Cn3nnc(-c4nc(-c5ccccc5C)no4)c3C)c(C)o2)cc1	-27.4
O=C1NCC[C@]12CN(C1CCOC1)C[C@H]2c1ccccc1 (stereo not given in full)	-3.1
CC(C)CN1C(=O)N(C2Cc3ccccc3C2)C(=O)C12CCN(Cc1ccsc1)CC2	8.8
CCC(c1ccc(F)cc1)N(C)C(=O)CN1C(=O)NC2(CCC(C)CC2)C1=O (stereo not given)	-15.8

Next part, starting with the last two of the part before.
SMILES	Tgondii IFNg
CC(C)CN1C(=O)N(C2Cc3ccccc3C2)C(=O)C12CCN(Cc1ccsc1)CC2	8.8
CCC(c1ccc(F)cc1)N(C)C(=O)CN1C(=O)NC2(CCC(C)CC2)C1=O (stereo not given)	-15.8
C#CC1(OCC(O)CN2CCN(c3cccc(C(F)(F)F)c3)CC2)CCCCC1 (stereo not given)	-80.2*
O=C(Cc1ccc(F)cc1)N1CC[C@@H](O)[C@@H]1Cc1ccccc1	-30.4
O=C(NCCc1csc(-c2ccc(F)cc2)n1)c1c(F)cccc1F	-7.1
Cc1c(C(=O)NCCS(=O)(=O)N(C)C)sc2ccccc12	3.8
Nc1nc2c(c(=O)[nH]1)CCN(C(=O)[C@@H]1C[C@@H]3C=C[C@H]1C3)C2	1.3
CC(C)[C@H](NC(=O)[C@H](CC(=O)O)NC(=O)[C@H](CCCCN)NC(=O)[C@@H](N)CCCN=C(N)N)C(=O)N[C@@H](Cc1ccc(O)cc1)C(=O)O	10.2
O=C1CC(c2ccc3cccc(O)c3n2)c2cc3cn[nH]c3cc2N1 (stereo not given)	7.3
COCCC(=O)c1nc2c(s1)CCCN2c1ccc(C)nn1	-28.0
CCc1nc2ccccc2n1C1CCN(C(=O)c2cc3ccc(N(C)C)cc3[nH]2)CC1	8.2
O=c1ccc2cc(S(=O)(=O)N3CCCC(COc4ccc(F)cc4)C3)ccc2o1 (stereo not given)	-5.9
CCOc1cc(C(=O)Nc2ccc(Cl)c(-c3nc4ccccc4[nH]3)c2)cc(OCC)c1OCC	-75.9*
Cn1c(C(=O)NCC2CCCO2)cc2c1c1ccccc1n2C (stereo not given)	24.0
Cc1cccc(C(=O)N2CC[C@H]3[C@@H]2CCN3c2ncccn2)n1	-4.1
CCc1cccc2c(=O)c(C(=O)N3CCCCC3)c[nH]c12	-25.5
CCOC(=O)c1c(C)nc2ccccc2c1C(=O)O	9.0
CCCC(=O)Nc1ccc2c(c1)OC[C@@H](C)N(C(=O)c1cccnc1)C[C@H](C)[C@H](OC)CN(C)C2=O	-12.1
CCC(=O)N1C[C@@H]2CN(c3cnccn3)CC[C@H]2C1	4.2
CC(C)NC(=O)N1CCCC1c1nnn2cc(C3CC3)ccc12 (stereo not given)	-17.5
COc1ccccc1-c1noc(-c2c(O)c3cc(Cl)ccc3[nH]c2=O)n1	-34.0
CC(=O)CCc1oc2ccccc2c1-c1ccccc1	7.0
CCC(=O)N1CC2(CCN(Cc3ccc(Cl)cc3)CC2)c2c(n(C)c3cc(OC)ccc23)[C@H]1CO	-39.9
Cc1ccccc1C1(O)CCN(C(=O)CCc2nc3ccccc3[nH]2)C1 (stereo not given)	-26.4
COc1cccc(NC(=O)C2=C(C)C(=O)OC23CCN(Cc2ccccc2)CC3)c1	i
O=C(CC(F)(F)F)N1C[C@H]2[C@@H](c3ccccc31)[C@@H](CO)N2C(=O)C1CCCCC1	-17.9
Cc1noc(C)c1C(=O)N1CCC2(CC1)C(=O)N(C)CCN2CC(C)C	-11.0
Cc1cc(C)c2nccc(-c3ccncc3)c2c1	-40.3
COc1ccc(N2CCN(C(=S)NCc3ccccc3)CC2)cc1	64.0
CCC(c1ccccn1)N(C)Cc1ncccc1C(=O)O (stereo not given)	0.9
CCN1c2cc(C)ccc2-n2cccc2C12CCN(C(=O)Nc1ccc(Br)c(C)c1)CC2	-14.0
CN1CCN(S(=O)(=O)c2ccc(NC(=O)c3ccco3)cc2)CC1	8.1
O=C(CC1COCCN1)NCc1cn2ccsc2n1 (stereo not given)	4.6
O=C(c1ccoc1)N1CCc2c(COCc3ccncc3)cncc2C1	95.3
COCc1nn(C)c2c1CN(c1ccc(C)nn1)CC2	29.0
COc1ccc(S(=O)(=O)N2CCC3(CC2)Nc2cc(C)ccc2-n2cccc23)cc1OC	43.6
COc1ccc(N2CCCN(CC3CCN(C(=O)Cc4nonc4C)CC3)CC2)cc1	34.4
Cc1oc(-c2ccccc2)nc1Cc1noc(COc2ccccc2)n1	-35.8
O=C(Cn1ncc2c(N3CCCCCC3)ncnc21)N1CCC2(CC1)OCCO2	31.4
O=C(Cn1ccnc1)Nc1ccc(N2CCOCC2)c(C(F)(F)F)c1	-21.4
C=CCN1CCc2c(cc(O)c(O)c2Br)[C@@H](c2ccccc2)C1	-17.2
COc1ccc(-n2c(C)c3c(OC)cccc(=O)c3c2C)cc1	-6.4
COc1ccc(C2=NNC(=O)CC2)cc1	-55.2
Cc1nc(-c2ccccc2)nc2c1COCC21CCN(c2ncc(F)cn2)C1 (stereo not given)	-22.0
O=C(C1CCC1)N1CCCCN2[C@H](CO)[C@H](c3ccc(-c4ccncc4)cc3)[C@H]2C1	-9.9
COc1ccccc1C1CCCN1C(=O)C1CCCN(c2nc(C)c3ccc(C)cc3n2)C1 (stereo not given)	12.9
COc1cc(C(=O)N2CCC3(CC2)NC(=O)c2ccc(F)cc2N3C)cc(OC)c1OC	32.3

Quoted from the listing.
O=C(Cn1ccnc1)Nc1ccc(N2CCOCC2)c(C(F)(F)F)c1 @ Tgondii IFNg = -21.4
COc1ccc(C2=NNC(=O)CC2)cc1 @ Tgondii IFNg = -55.2
C=CCN1CCc2c(cc(O)c(O)c2Br)[C@@H](c2ccccc2)C1 @ Tgondii IFNg = -17.2

The list goes on.
SMILES	Tgondii IFNg
CCn1c(C2CCN(c3nccc(N4CCC(O)C4)n3)CC2)nn(C)c1=O (stereo not given)	2.8
CN1C2CCN(C(=O)c3ccsc3)CC2C[C@H]1Cn1cncn1 (stereo not given in full)	12.3
c1ccc2c(N3CCOCC3)nc(N3CCOCC3)nc2c1	-3.6
Cc1cc(CN2CCc3cnn(C)c3C2COCC2CC2)oc1C (stereo not given)	2.0
COc1cccc(CNC(=O)[C@@H]2[C@@H](CO)[C@@H]3Cn4c(ccc(-c5cncnc5)c4=O)[C@@H]3N2C)c1	-0.5
Cc1csc2ncnc(-c3cccc4[nH]ccc34)c12	-74.1*
O=C(C[C@H]1CC[C@@H]2[C@H](COC[C@@H](O)CN2C(=O)Nc2cccc(F)c2)O1)NCCCN1CCOCC1	-29.0
COCCN1C(=O)N(Cc2ccccc2)C2(CCN(CC3=CC[C@H]4C[C@@H]3C4(C)C)CC2)C1=O	-22.9
O=C(NC[C@@]12COC[C@H]1CN(c1ncc(F)cn1)C2)c1cccnc1	11.2
C[C@@H]1CCCCO[C@@H](CN(C)C(=O)Nc2ccc(C(F)(F)F)cc2)[C@@H](C)CN([C@H](C)CO)C(=O)c2cc(NS(=O)(=O)c3cn(C)cn3)ccc2O1	15.6

The list is partial, so the mix of outcomes need not match the whole.
